Compound activity as filed in PubChem BioAssay.
A488 fluor – A488 region autofluorescence; compound autofluorescence, A488 spectral region, dye equivalency; active compounds read high; max dye equivalency, M; actives 0.1% (n = 59,000); active = above 10 nM dye equivalent; inconclusive = 1 to 10 nM; inactive = 1 nM or less; about half of its hits are not listed in these tables;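 note: highest value over a series up to 38 µM; compound alone in buffer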
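Readout is A488 dye-equivalent concentration, calibrated by a per-plate six-point Alexa 488 series. Compounds in 100 mM Tris buffer pH 8.0 were incubated 15 min at room temperature. Plates were imaged using 480 nm excitation/540 nm emission filters.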
Resorufin fluor – resorufin region autofluorescence. Compound fluorescence, resorufin region 547/598 nm, buffer; active compounds read high. max dye-equivalent concentration, M. actives 0.04% (n = 59,000); active = above 10 nM dye equivalent; inconclusive = 1 to 10 nM; inactive = 1 nM or less; a few of its hits are not listed in these tables; note: highest value over a series up to 38 µM
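Compounds in 100 mM Tris buffer, pH 8.0, incubated 15 min at room temperature, then read with 547 nm excitation and 598 nm emission filters. Fluorescence was converted to dye-equivalent concentration using an on-plate six-point resorufin standard curve.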
AID923 – qHTS Assay for Allosteric/Competitive Inhibitors of Caspase-1: Spectroscopic Profiling in AFC Spectral Region. AID 923, 2007. actives 1.1% (n = 75,000). Potency, µM (doses to about 57.5 µM), for inactives: at the highest dose fluorescence increase, usual class: activators. compound fluorescence, AFC spectral region (405/520 nm); almost no hit is shown here; active = well fitted activation curve with a large enough effect; inconclusive = small, poorly fitted or top-dose-only effect;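 note: potency is the fitted concentration of half-maximal effect; 0% is about no effect; scaled to a free AFC standard on each plate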
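Baseline compound fluorescence (AFC region, 405 nm ex/520 nm em) taken from the intercept of kinetic reads with 50 nM caspase-1 and 5 uM Ac-WEHD-AFC; normalized to an on-plate AFC standard curve; compounds titrated up to 57 uM.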
TSHR agonist – agonists of human thyroid stimulating hormone receptor; P16473; HEK293-CNG-TSHR cells (CNG channel as cAMP sensor), membrane potential dye, cAMP; Potency, µM (doses to about 57.1 µM), without a hit: at the highest dose activation, most hits filed as activators; actives 0.48% (n = 73,000); active = well fitted activation curve of enough size with the parental cells flat; inconclusive = any curve in the parental cells; inactive = parental cells flat and receptor cells flat or falling; note: potency is the fitted concentration of half-maximal effect; % of control where 0% means no effect; weak receptor curves with flat parental cells got no call and are not listed
Target sequence (P16473 whole entry, looked up): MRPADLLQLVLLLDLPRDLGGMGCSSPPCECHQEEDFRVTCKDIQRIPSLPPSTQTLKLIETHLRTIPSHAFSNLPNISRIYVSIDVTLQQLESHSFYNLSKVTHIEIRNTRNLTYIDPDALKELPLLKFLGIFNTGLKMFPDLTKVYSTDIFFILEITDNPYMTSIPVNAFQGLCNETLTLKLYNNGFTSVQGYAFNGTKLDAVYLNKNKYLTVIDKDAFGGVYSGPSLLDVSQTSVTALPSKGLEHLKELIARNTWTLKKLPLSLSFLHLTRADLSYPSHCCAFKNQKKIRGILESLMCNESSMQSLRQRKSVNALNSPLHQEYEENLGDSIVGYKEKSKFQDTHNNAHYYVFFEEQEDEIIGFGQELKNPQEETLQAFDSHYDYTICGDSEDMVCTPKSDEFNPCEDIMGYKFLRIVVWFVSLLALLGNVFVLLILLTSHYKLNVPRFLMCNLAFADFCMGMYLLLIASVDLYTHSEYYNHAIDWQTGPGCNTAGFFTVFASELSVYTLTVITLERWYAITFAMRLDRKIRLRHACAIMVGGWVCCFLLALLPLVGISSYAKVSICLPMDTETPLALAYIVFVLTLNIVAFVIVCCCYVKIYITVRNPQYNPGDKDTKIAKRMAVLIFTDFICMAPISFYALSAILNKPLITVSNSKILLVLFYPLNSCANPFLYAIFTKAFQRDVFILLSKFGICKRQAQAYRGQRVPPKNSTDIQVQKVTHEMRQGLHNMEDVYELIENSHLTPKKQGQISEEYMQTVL
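HEK 293 cells stably expressing TSHR and a cAMP-gated CNG channel; parental CNG-only cells as counterscreen. Cells preloaded 60 min with membrane potential dye plus 100 uM RO 20-1724, then compound 30 min; fluorescence read at 590 nm.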
A647 autofl – compound fluoresces in the A647 spectral region | Compound fluorescence, A647 channel (570/671 nm), Tris buffer | max dye-equivalent concentration, M | 59,000 tested, under 10 active; active means above 1 µM dye equivalent; inconclusive means 0.1 to 1 µM; inactive means 0.1 µM or less;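 note: values scaled relative to a standard on each plate; highest value over a series up to 38 µM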
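Each compound's intrinsic fluorescence at 570 nm excitation and 671 nm emission is measured across its concentration series in 100 mM Tris, pH 8.0, after 15 min at room temperature, and reported relative to an A647 curve.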
An asterisk follows results filed as active; i = inactive; ? = inconclusive; nt = not tested or not shown; & = joins results of further samples; [ ] = another dose, or the depositor's remark. This is a subset, so the mix of outcomes need not match the whole.

Screens in order: A488 fluor | Resorufin fluor | AID923 | TSHR agonist | A647 autofl
CC(N=C1NS(=O)(=O)c2ccccc21)c1ccccc1 (centres undefined)
    nt | nt | 0.0% | 0.8% | nt
CN1CCN(CCCN2c3ccccc3Sc3ccc(C(F)(F)F)cc32)CC1
    i | i | -2.7%[11.5 µM] | -2.9%[11.4 µM] | 5.3e-08&1.2e-09&5.9e-09&3.2e-09
COc1ccc(CCNC(=O)C2CCN(S(=O)(=O)c3cccc4nsnc34)CC2)cc1OC
    i | i | 1.2% | -6.2% | 1e-09
CC1(C)N=C(C(=O)c2ccccc2)N(O)C1(C)O (centres undefined)
    i | i | -0.7% | 1.2% | 9.1e-09
O=c1cc(C(F)(F)F)nc(-c2ccccc2)[nH]1
    nt | nt | 0.3% | 6.4%[11.4 µM] | nt
CCOC(=O)c1ccc(NC(=O)CCc2ccc(CC)o2)cc1
    i | i | -1.4% | 14.5% | 1.5e-09
CC(C)c1ccc(NC(=O)CSc2nnc(-c3ccccn3)n2C)cc1
    i | i | -0.9% | 5.3% | 9.1e-09
Cc1ccc(CN(c2ccc(C(=O)N3CCOCC3)cc2)S(C)(=O)=O)cc1
    nt | nt | -0.7% | ? | nt
COc1cc(NC(=O)c2cnn3c(C)cc(C)nc23)c(OC)cc1Cl
    i | i | -0.6% | 9.9% | 6.3e-09
COc1ccccc1CC(NC(C)=O)C(=O)NC1CCN(c2nnnn2-c2ccccc2)CC1 (centres undefined)
    i | i | -1.5% | ? | 1e-09
COc1ccccc1-c1cc(C(=O)NCc2cccs2)no1
    i | i | 0.3% | 0.0%[11.4 µM] | 4.3e-09
COc1ccccc1S(=O)(=O)Cc1ccc(C(=O)NCCN2CCCC2)o1
    i | i | 1.4% | 1.6% | 1.4e-09
Cc1nn(C(=O)c2cccs2)c(N)c1-c1ccccc1
    nt | nt | 1.2% | -1.4% | nt
CCOC(=O)c1cnc(SCC(=O)Nc2sc(C)c(C)c2C#N)nc1N
    i | i | -0.6% | -13.7% | 7.6e-09
COCCNC(=O)c1c[nH]c2ccc(OC)cc2c1=O
    i | i | -0.4% | -1.7% | 1e-09
CCCCN1CCc2c([nH]c3ccccc23)C1=O
    nt | nt | -2.7% | ? | nt
Cn1c(-c2ccc(F)cc2)cnc1NCc1ccccc1
    i | i | 1.5% | nt | 2.73e-08
C=C(C)C1CC=C(CN2CCC(C(=O)OCC)CC2)CC1 (centres undefined)
    nt | nt | 2.8% | ? | nt
COc1ccccc1-c1nnc(SC/C(O)=C(\C#N)c2nc3ccccc3[nH]2)n1C1CCCCC1
    i | i | 1.3% | -2.7%[11.4 µM] | 1.54e-08
CCOc1cc(N2CCOCC2)c(OCC)cc1NC(=O)CCS(=O)(=O)c1ccc(Cl)cc1
    i | i | 0.7% | -8.0% | 1e-09

(further entries)
Screens in order: A488 fluor | Resorufin fluor | AID923 | TSHR agonist | A647 autofl
C=CCOC(=O)N1CCN(c2cccc(C(F)(F)F)c2)CC1
    i | i | -0.3% | 16.2% | 2.8e-08
O=C(O)COCC(=O)Nc1ccc2c(c1)CCC2
    i | i | 1.5% | -0.6% | 4.03e-08
CCNc1ccc(S(=O)(=O)C(F)(F)F)cc1NC(=O)C12CCC(CC1)C2
    i | i | -2.4% | ? | 2.78e-08
Cc1ccccc1OC(C)c1nc(-c2ccccc2)no1 (centres undefined)
    i | i | -1.8% | ? | 1e-09
Cc1ccc2cccc(Oc3cnccn3)c2n1
    i | i | -0.5% | -0.7% | 4.1e-09
Cc1ccc2cc(CN(Cc3nnnn3C3CCCC3)C3CCCCC3)c(=O)[nH]c2c1C
    i | i | 0.3% | 9.0% | 2.02e-08
Fc1ccc(C2=Nn3c(Cc4ccccc4)nnc3SC2)cc1
    i | i | -1.7% | 8.5% | 2.18e-08
COC(=O)CC1C(=O)NC2CCCCC2N1C(=O)c1ccccc1 (centres undefined)
    i | i | -2.0% | 3.5% | 1e-09
CN(C)C(=O)c1ccc(Oc2ccc(C(=O)N(C)C)cc2)cc1
    i | i | -1.1% | -4.3%[11.4 µM] | 1.7e-08
COc1ccc(-n2c(Cc3cccn3C)nnc2SCC(=O)Nc2ccc(C)c(Cl)c2)cc1
    nt | nt | -2.0% | -0.1% | nt
Cc1cc(SCNC(=O)c2ccccc2)ncn1
    nt | nt | -1.5% | 3.5% | nt
CC(C)c1ccc(-c2noc(C3CCCN(C(=O)c4ccc(F)cc4F)C3)n2)cc1 (centres undefined)
    i | i | -4.4% | 24.0% | 2.05e-08
Oc1[nH]c2ccccc2c1C=NCC1CCCO1 (centres undefined)
    i | i | 0.9% | -1.3% | 1.4e-08
O=S(=O)(c1ccccc1)c1ccccc1/C=N\O
    i | i | -0.4% | nt | 1e-09
O=C(CN1CCOCC1)Nc1cccc(C(=O)Nc2cccc(C(F)(F)F)c2)c1
    i | i | -0.4% | 3.1% | 1e-09
NCCOc1ccccn1
    i | i | 0.4%[11.5 µM] | 0.0%[11.4 µM] | 3.3e-09
COc1cc(C2c3c(oc4ccccc4c3=O)C(=O)N2CCN2CCOCC2)cc(OC)c1OC (centres undefined)
    i | i | -2.7% | -1.0% | 2.2e-09
CCc1nnc(NC(=O)CSc2nnc(CNc3ccc(Cl)cc3)o2)s1
    i | i | 0.0% | -0.3% | 3.6e-09
Cc1ccnc(NS(=O)(=O)c2ccc(NC(=O)C3CCCCC3)cc2)n1
    i | i | 1.0% | -1.5% | 2.27e-08
Cc1c(Cl)cnc(NC(=O)COC(=O)C(NC(=O)c2ccco2)C(C)C)c1Cl (centres undefined)
    i | i | 0.5% | 5.0% | 1e-09

(further entries)
Screens in order: A488 fluor | Resorufin fluor | AID923 | TSHR agonist | A647 autofl
CN(C)C(=O)CSc1cccc2cccnc12
    i | i | -0.3% | 27.0% | 1e-09
Cc1cccc(S(=O)(=O)C(C#N)c2nc3ccccc3nc2N2CCOCC2)c1 (centres undefined)
    i | i | 14.8% | 6.1% | 1e-09
CN(c1ccc(C(=O)N2CCCCC2)cc1)S(=O)(=O)c1ccccc1
    i | i | -1.0% | ? | 3.19e-08
Cc1cnc(CNc2ccnc(-c3cccnc3)n2)cn1
    i | i | 0.1% | 3.1% | 1e-09
Cc1ccc2cc(CN(Cc3ccccc3)Cc3nnnn3C3CCCC3)c(=O)[nH]c2c1
    i | i | 0.1% | ? | 5.1e-09
COCC(=O)N1CCC2(CC1)CCN(C(=O)Nc1cccc(C#N)c1)CC2
    i | i | 7.4% | -7.6% | 1.2e-09
COc1ccc(NS(=O)(=O)c2ccc3c(c2)Cc2ccccc2-3)cn1
    i | i | -1.2% | ? | 3.52e-08
O=C(NCc1ccco1)c1ccc2ccccc2c1
    nt | nt | 1.7% | ? | nt
CCn1cc(C(=O)NC2CCC(C)CC2)c(=O)c2cc(S(=O)(=O)N3CCCCC3)ccc21 (centres undefined)
    i | i | -2.4% | -16.3% | 3.1e-08
Cc1ccc(NCc2nnc(SCC(=O)NCc3ccco3)n2CC2CCCO2)cc1Cl (centres undefined)
    i | i | 0.2% | 1.6% | 3.27e-08
Cc1ccc2c(c1)nnn2C1CCN(CC(=O)Nc2ccccc2N2CCOCC2)CC1
    i | i | 0.7% | 12.7% | 7.6e-09
COc1ccc(OCc2nn3c(-c4ccco4)nnc3s2)cc1
    i | i | -1.3% | 20.0% | 1.8e-08
CCOc1ccc(N(CC(=O)Nc2ccc(OC)cc2)S(=O)(=O)c2c(C)noc2C)cc1
    nt | nt | -0.8% | ? | nt
O=C(CSc1nnc(CNC(=O)c2cccs2)o1)NCCc1ccccc1
    i | i | -0.9% | 3.9%[11.4 µM] | 1.96e-08
Cc1noc(C)c1C(=O)N1CCC2(CCN(C(=O)Nc3ccccc3)CC2)CC1
    i | i | -1.5% | 2.4% | 3.8e-09
O=C(NCc1ccco1)C1(c2ccccc2)CCCC1
    i | i | -1.3% | ? | 2.23e-08
c1cncc(-c2noc(C34CC5CC(CC(C5)C3)C4)n2)c1
    i | i | -3.1% | ? | 1e-09
Cc1ccccc1C(=O)c1cccn1CC(=O)O
    nt | nt | -1.4% | 12.8% | nt
CCOC(=O)c1[nH]c2ccc(OC)cc2c1NC(=O)CN1CCN(c2ccccn2)CC1
    i | i | nt | nt | 1e-09
COc1ccc(-c2cc(C(=O)N3CCN(c4ccccn4)CC3)c3ccccc3n2)cc1
    i | i | 3.6% | nt | 1e-09

A draw from above in order of number of heavy atoms, low to high:
Screens in order: A488 fluor | Resorufin fluor | AID923 | TSHR agonist | A647 autofl
CN(c1ccc(C(=O)N2CCCCC2)cc1)S(=O)(=O)c1ccccc1
    i | i | -1.0% | ? | 3.19e-08
O=C(CSc1nnc(CNC(=O)c2cccs2)o1)NCCc1ccccc1
    i | i | -0.9% | 3.9%[11.4 µM] | 1.96e-08
Cc1ccc2cc(CN(Cc3ccccc3)Cc3nnnn3C3CCCC3)c(=O)[nH]c2c1
    i | i | 0.1% | ? | 5.1e-09

(listing goes on)
Screens in order: A488 fluor | Resorufin fluor | AID923 | TSHR agonist | A647 autofl
CCc1nnc(NC2=NCCC2)s1
    i | i | 0.3% | -3.6% | 3.37e-08
COc1cccc(NC(=O)COc2ccc(N3CC(C(=O)NCC(C)C)CC3=O)cc2)c1 (centres undefined)
    i | i | -0.8% | 2.9% | 1e-09
CCC1(CC)C(=O)N(C)C(=O)NC1=NCc1ccccc1
    i | i | -0.2% | -4.4% | 5.76e-08
Cc1cccc(NC(=O)CN2CCCN(S(=O)(=O)c3ccc(Br)s3)CC2)c1
    i | i | 2.6% | ? | 2.1e-08
CC(C)OC(=O)C1C(=O)CC(C)(O)C(C(=O)OC(C)C)C1c1cccnc1 (centres undefined)
    i | i | -2.4% | ? | 1e-09
CCCN(Cc1cc2cc(OC)ccc2[nH]c1=O)C(=O)c1ccncc1
    i | i | 5.7% | -5.5% | 1.11e-08
Cc1nc2c(-c3ccc(F)cc3)c(C)nn2c(N2CCOCC2)c1C
    i | i | 0.3% | -10.7% | 6.3e-09
CN1CCCC2(CCN(C(=O)c3cc(C(F)(F)F)cc(C(F)(F)F)c3)CC2)C1
    i | i | 4.3% | ? | 4.1e-09
COc1cccc(N2CCN(C(=O)C3C4C=CC5(CN(Cc6ccccc6Cl)C(=O)C35)O4)CC2)c1 (centres undefined)
    i | i | 1.4% | 5.6% | 1e-09
Cc1nc(N2CCCCC2)c2sc(=S)n(C)c2n1
    nt | nt | -2.3% | 12.7% | nt
O=C(c1cccnc1NCc1ccccc1)N1CCOCC1
    i | i | -1.0% | -0.7% | 2.92e-08
O=C(C1CCCN(S(=O)(=O)c2cnc[nH]2)C1)N1CCN(c2ccc(Cl)cc2)CC1 (centres undefined)
    nt | nt | 4.0% | -1.7% | nt
CCOc1ccc(N(CC(=O)N2CCCC2)S(=O)(=O)c2c(C)noc2C)cc1
    nt | nt | 0.5% | 16.1% | nt
CN(C)c1ccc(NC(=O)c2ccncc2)c2ccccc12
    i | i | 0.0% | -6.6% | 1.5e-09
O=c1c(-c2ccccc2)nc2cnc(Oc3cccc(Cl)c3)nc2n1C1CC1
    i | i | 7.7% | ? | 1e-09
CCc1cc2c(nc1CC)CCN(CC/C(C)=N/OC[C@H]1O[C@H](c3ccccc3)C=C[C@@H]1Oc1ccc(OC)cc1)C2
    nt | nt | -1.3%[11.5 µM] | 3.7%[11.4 µM] | nt
CCCCOC(=O)Nc1ccc(N2CCOCC2)cc1
    nt | nt | -1.7% | 6.7% | nt
COc1cc(NC(=O)CCN2CCN(Cc3ccccc3)CC2)cc(OC)c1
    nt | nt | 1.4% | 5.6% | nt
CN1CCc2nc(-c3ccccc3)c(-c3ccccc3)cc2C1
    nt | nt | -1.7%[11.5 µM] | 2.0%[11.4 µM] | nt
CCCC(=O)Nc1ccc(C(=O)N2CCCC2)cc1
    i | i | 1.6% | -5.7% | 4.1e-09
Cc1nnc(SCC(=O)Nc2cccc(C(F)(F)F)c2)n1Cc1ccco1
    i | i | 0.2% | -3.7% | 1.35e-08
